# Screening data deposited in PubChem BioAssay by ICCB-Longwood Screening Facility, Harvard Medical School.
# Sa growth 42C – inhibitors of Staphylococcus aureus growth at 42 °C; S. aureus RN4220 growth, OD600, 20 h; hits give low values; relative growth, % (no concentration beside the values); hit rate 0.53% among 170,000; AID 720641;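 active = growth at 42 °C up to 50% and 20 or more points under that at 30 °C, or under 10% at both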;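 also: 300 nL library stock went into each well; scaled to the means of positive and negative controls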
# GIV Gai3 FP – GIV-Galpha-i interaction inhibition; P08753; Galpha-i3/FITC-GIV peptide fluorescence polarization, 90 min; hits give low values; scaled: aluminum fluoride 0%, vehicle 100%; percent of control (FP), % (test concentration not listed); hit rate 0.42% among 210,000; AID 1224905;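 active = replicate mean at 85% of control or lower, very high polarization wells dropped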;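 also: wells of about 15 µL received 100 nL stock; the first replicate is given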
# Target sequence (P08753 whole entry, looked up): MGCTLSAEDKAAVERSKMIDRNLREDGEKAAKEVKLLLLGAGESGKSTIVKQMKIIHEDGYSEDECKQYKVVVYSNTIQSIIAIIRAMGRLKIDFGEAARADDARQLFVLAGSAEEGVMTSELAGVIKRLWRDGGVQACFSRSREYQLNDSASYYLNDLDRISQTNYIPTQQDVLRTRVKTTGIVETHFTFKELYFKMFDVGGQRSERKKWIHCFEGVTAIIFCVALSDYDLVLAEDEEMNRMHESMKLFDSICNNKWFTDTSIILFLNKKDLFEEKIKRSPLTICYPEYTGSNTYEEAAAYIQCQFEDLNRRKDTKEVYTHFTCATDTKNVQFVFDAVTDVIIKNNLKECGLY
# HCMV UL50-53 inh – inhibitors of HCMV UL50-UL53 nuclear egress complex interaction; HTRF UL50-UL53 interaction, normalized percent inhibition; inhibition, % (no concentration beside the values); hit rate 0.15% among 190,000; AID 1918969;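 active = both replicates at 50% or more, plus weaker picks with an unusually low signal ratio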;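 also: stock transfer was 100 nL into about 20 µL; 0% = negative control wells and 100% = wells with untagged competitor protein; inactives centre near -12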
# Sa growth 42C second temp – also measured in Sa growth 42C; calls as there; relative growth, %; measured here: growth at 30 °C;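 optical density after 20 h as mean of two plates; 100% = untreated growth and lower means inhibition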
# An asterisk follows results filed as active; / = no result given; & = joins results of further samples.
# The first 2 compounds, to show the layout:
# Screens in order: Sa growth 42C second temp	Sa growth 42C	GIV Gai3 FP	HCMV UL50-53 inh
- CCOC(=O)Cc1csc(NC(=O)C2CCCN(c3nc4cccnc4s3)C2)n1 (configuration not stated)
→ /	/	109	-30
- Cc1ccc(NC(=O)c2cccc(Oc3ccc(C#N)cc3)c2)cc1
→ 81	110	97	/

# The list itself, from the start:
# Screens in order: Sa growth 42C second temp	Sa growth 42C	GIV Gai3 FP	HCMV UL50-53 inh
- CCOC(=O)Cc1csc(NC(=O)C2CCCN(c3nc4cccnc4s3)C2)n1 (configuration not stated)
→ /	/	109	-30
- Cc1ccc(NC(=O)c2cccc(Oc3ccc(C#N)cc3)c2)cc1
→ 81	110	97	/
- O=C(COC(=O)c1ccc(Br)cc1)Nc1cccc2ccccc12
→ 81	126	/	-31
- CCc1ccc(CN(C(=O)c2nc(SC)ncc2Cl)C2CCS(=O)(=O)C2)cc1 (configuration not stated)
→ 87	97	101	-4
- O=C(Nc1ccccc1)c1cnc2n(c1=O)CCS2
→ 81	94	100	-8
- CC1(O)N(CC(=O)O)C(=O)OC12CCCCC2 (configuration not stated)
→ 91	87	/	-5
- C=C(C)C1CC=C(CN2CC(C)OC(C)C2)CC1 (configuration not stated)
→ 85	95	96	-4
- COc1ccccc1NC(=O)CCNS(=O)(=O)c1ccc2c(c1)CCCC(=O)N2
→ 97	83	109	/
- Cc1ccc(NC(=O)Cn2c(=O)n(CCC(C)C)c(=O)c3cccnc32)cc1C
→ 93	101	102	-14
- Cc1ccc(NC(=O)C2CCCN(S(=O)(=O)c3cccc4nsnc34)C2)cc1C (configuration not stated)
→ 88	105	109	-9
- Cc1cc(=O)[nH]c(-n2nc(C)cc2NC(=O)c2ccc(C)c(C)c2)n1
→ /	/	98	-26
- CSc1ccc(CCNC(=O)C(C)n2nc(C)c3c(C)n(-c4ccccc4)nc3c2=O)cc1 (configuration not stated)
→ 87	104	107	/
- COc1c(NC(=O)N(C)C)csc1Cl
→ 94	100	108	-16
- CC1(C)C2CCC1(C)C(NC(=O)c1ccco1)C2 (configuration not stated)
→ 49	92	107	-2
- CCOc1ccccc1N1CCN(C(=O)CC(C)(C)C)CC1
→ 101	101	104	2
- CCNC(=O)c1cc2c(=O)n3ccccc3nc2n(C(C)C)c1=N
→ 83	117	106	/
- O=C(Nc1ccc2nc(N3CCC(N4CCCCC4)CC3)cc(C(=O)O)c2c1)c1cccc(Cl)c1
→ /	/	105	-40
- COc1cccc(/C=C/c2nc(C#N)c(NCCN(C)C)o2)c1
→ 99	127	106	-70
- Cc1ccc2c(c1)C1OCCC1C(c1cccs1)N2 (configuration not stated)
→ 101	83	103	6
- CCCCn1c(=O)c(CCC(=O)O)nc2ccccc21
→ 79	114	/	-26

# Quoted from the listing:
# CSc1ccc(CCNC(=O)C(C)n2nc(C)c3c(C)n(-c4ccccc4)nc3c2=O)cc1 (configuration not stated) @ GIV Gai3 FP: 107
# Cc1ccc(NC(=O)C2CCCN(S(=O)(=O)c3cccc4nsnc34)C2)cc1C (configuration not stated) @ GIV Gai3 FP: 109

# Filtered by structure: the compounds so far containing a thiophene ring, fused or not (two)
# Screens in order: Sa growth 42C second temp	Sa growth 42C	GIV Gai3 FP	HCMV UL50-53 inh
- COc1c(NC(=O)N(C)C)csc1Cl
→ 94	100	108	-16
- Cc1ccc2c(c1)C1OCCC1C(c1cccs1)N2 (configuration not stated)
→ 101	83	103	6

# Following part.
# Screens in order: Sa growth 42C second temp	Sa growth 42C	GIV Gai3 FP	HCMV UL50-53 inh
- COc1cccc(CSc2nc3ccncc3n2CC(=O)Nc2ccc(N(C)C)cc2)c1
→ 96	105	104	0
- CCCCN(CCCC)S(=O)(=O)c1ccc(NC(=O)c2c(-c3ccccc3)noc2C)cc1
→ 94	111	101	-18
- CCOc1ccc(NC(=O)c2nnn(-c3ccc(F)c(Cl)c3)c2C)cc1
→ 94	97	101	-24
- CN(C)CC[C@@H](c1ccc(Cl)cc1)c1ccccn1
→ 74	84	99	-37
- CCN(CC)CCN(CCC#N)S(=O)(=O)c1cccc2nsnc12
→ /	/	101	-55
- O=C(Nc1ccc2nc(SCC(=O)N3CCCC3)sc2c1)c1cccc(F)c1
→ 101	113	103	5
- CC(NC(N)=O)C1CC1 (configuration not stated)
→ 104	93	/	9
- COc1ccc(C(=O)Nc2ccc3nc4c(c(Nc5ccccc5OC)c3c2)CCCC4)c(OC)c1
→ 91	106	107	-44
- COc1ccc(OC)c(-n2c(N)c(C#N)c3nc4ccccc4nc32)c1
→ 107	106	/	8
- COC(=O)c1cccnc1-n1c(=O)c2cccnc2n(CC(=O)Nc2cccc(C(F)(F)F)c2)c1=O
→ 82	98	99	5
- Cc1cccc(N2CCn3c2nc2c3c(=O)n(CCc3ccccc3)c(=O)n2C)c1
→ 97	106	106	/
- O=C(CCCn1sc2ccccc2c1=O)N1CCc2ccccc21
→ 95	93	102	/
- COc1ccc(N2CCN(C(=O)CCNC(C)=O)CC2)cc1
→ 98	101	/	-8
- COc1ccc(OC)c(NC(=O)C2CCCN(S(=O)(=O)c3c(C)nn(C)c3C)C2)c1 (configuration not stated)
→ 78	97	98	-11
- CCCN(Cc1nnc(-c2ccco2)o1)C(=O)c1cccnc1SCc1c(C)noc1C
→ 97	81	/	-35
- COc1ccc(-c2c(-c3ccccc3)oc3ncnc(C)c23)cc1
→ 89	97	100	-9
- O=C(NC(=S)N(Cc1cccnc1)Cc1ccccc1Cl)c1ccccc1
→ 11	44	/	-10
- Cc1nc2sccn2c(=O)c1S(=O)(=O)N1CCN(c2ccccc2)CC1
→ 92	99	100	-14
- Cn1ncc(C#N)c1/N=C/N1CCCCC1
→ 93	97	103	-16
- CC(OC(=O)c1ccc2c(=O)n3c(nc2c1)CCCCC3)C(=O)Nc1ccc(Cl)cn1 (configuration not stated)
→ 89	102	/	-11

# Five entries drawn at random from those above:
# Screens in order: Sa growth 42C second temp	Sa growth 42C	GIV Gai3 FP	HCMV UL50-53 inh
- CCCCN(CCCC)S(=O)(=O)c1ccc(NC(=O)c2c(-c3ccccc3)noc2C)cc1
→ 94	111	101	-18
- O=C(Nc1ccc2nc(SCC(=O)N3CCCC3)sc2c1)c1cccc(F)c1
→ 101	113	103	5
- COc1ccc(OC)c(NC(=O)C2CCCN(S(=O)(=O)c3c(C)nn(C)c3C)C2)c1 (configuration not stated)
→ 78	97	98	-11
- CCCN(Cc1nnc(-c2ccco2)o1)C(=O)c1cccnc1SCc1c(C)noc1C
→ 97	81	/	-35
- CN(C)CC[C@@H](c1ccc(Cl)cc1)c1ccccn1
→ 74	84	99	-37

# (listing goes on)
# Screens in order: Sa growth 42C second temp	Sa growth 42C	GIV Gai3 FP	HCMV UL50-53 inh
- c1ccc(C2Cn3nnnc3-c3ccccc3O2)cc1 (configuration not stated)
→ 92	100	104	1
- C1CCc2nnnn2CC1
→ 98	100	95	6&2&-4&-10
- N#CCOc1ccc(C(=O)NC2CCN(Cc3ccccc3)CC2)cc1
→ 97	96	/	-1
- CCCCNC(=O)CCCn1c(=O)c2ccccc2n(Cc2ccccc2C)c1=O
→ 94	96	107	-24
- C=CCN(CC)C(=O)C1C(=O)CC(C)(C)CC1=O
→ 82	83	104	-20
- Cc1ccc2cc(OC(=O)c3ccc(Oc4cc(Cl)cc(Cl)c4)o3)ccc2n1
→ 85	93	102	-20
- N#Cc1ccc(COC(=O)c2oc3ccccc3c2COc2ccccc2)cc1
→ 82	104	/	-5
- Cc1ccc(C(C)C)c(OCCN2CC(C)CC(C)C2)c1 (configuration not stated)
→ 89	97	97	/
- CC(C)C(=O)Nc1ccc2oc(-c3cccc4c(Br)cccc34)nc2c1
→ 105	111	102	2
- CCCNC(=O)Nc1[nH]c(C)c(C(=O)OCC)c1C
→ 86	107	104	/
- O=C(Nc1ccccc1)c1ccc(Br)c(S(=O)(=O)N2CCCCC2)c1
→ 100	119	101	/
- O=C(NCc1ccccc1)c1noc2c1CCCC2
→ 94	97	102	-1
- O=C1/C(=C\c2ccccc2)N=C2SCCCCN12
→ 86	99	101	-93
- c1ccc2[nH]c(C3CCN(CCC4OCCO4)CC3)nc2c1
→ 87	80	107	-48
- CCOc1ccc(CNCc2cccn2-c2c(C(=O)O)cnn2-c2ccccc2)cc1
→ /	/	101	4
- Cn1c(O)c(N=Nc2nc3c(c(=O)[nH]c(=O)n3C)n2CCCOc2ccccc2)c(=O)n(C)c1=O
→ 93	99	109	-80
- O=C1CN(C(=O)COC(=O)c2cc(S(=O)(=O)N3CCOCC3)ccc2Cl)c2ccccc2N1
→ 96	89	/	2
- CC(=O)C1=C(c2ccc(C)cc2)N(C(C)=O)n2c(nnc2-c2ccccc2)S1
→ 101	104	100	/
- Cc1nc(Nc2ccc(S(=O)(=O)Nc3ccccn3)cc2)cc(-c2ccccc2)n1
→ /	/	103	-8
- CCCCN(CC)CCCNC(=O)c1cn(C)c2ccc(S(=O)(=O)N(C)C3CCCCC3)cc2c1=O
→ 95	89	100	-25

# (next part)
# Screens in order: Sa growth 42C second temp	Sa growth 42C	GIV Gai3 FP	HCMV UL50-53 inh
- Cc1cccc(N2C(=O)C(CC(=O)Nc3ccc(F)cc3)N(C3CCCC3)C2=O)c1 (configuration not stated)
→ 114	110	108	/
- Cc1cc(NCC(C)C)n2nc(C)c(-c3ccc(F)cc3)c2n1
→ /	/	102	3
- COC(=O)/C=C1\SC(N2N=C(c3ccco3)CC2c2ccc(OC)cc2)=NC1=O (configuration not stated)
→ 94	92	/	-32
- Cc1cc(OC(C)C(=O)N2CCC(c3nc4ccccc4o3)CC2)ccc1Cl (configuration not stated)
→ 87	103	99	-28
- CCOC(=O)c1cnc2c(ccc3ccccc32)c1Nc1cccc(Cl)c1
→ 85	101	108	-28
- O=c1nc(SCc2ccccc2)c2c(n1Cc1ccccc1)CCC2
→ /	/	103	2
- CCc1ccc(-c2nc3ccc(Br)cc3c(C(=O)O)c2C)s1
→ 85	98	108	-37
- O=C(Cn1cccc1)NCc1ccc(F)cc1
→ 103	113	102	0
- CSC(=NCc1c(N)cccc1F)NC#N
→ 91	85	105	-7
- COc1ccccc1CNC(=O)CC(c1ccc(F)cc1)N1Cc2ccccc2C1=O (configuration not stated)
→ 73	103	101	/
- Cc1ccccc1COc1ccc2oc(-c3ccccc3)c(C(=O)O)c2c1
→ 101	132	116	/
- O=c1oc2ccc(Br)cc2cc1-c1nnc(Nc2cccc(C(F)(F)F)c2)s1
→ /	/	105	-11
- O=C(c1ccccc1)N(Nc1ccccc1)c1ccccc1
→ 96	108	100	/
- CCC(Sc1nc(C)cc(=O)[nH]1)C(=O)Nc1ccccc1OC (configuration not stated)
→ 84	102	104	3
- O=c1nc(-c2ccc(Cl)cc2)nc(-c2ccc(Cl)cc2)[nH]1
→ 63	92	102	-34
- CCc1cccc(CC)c1NC(=O)Cn1nnc2sc3c(c2c1=O)CCCC3
→ 98	115	104	12
- CCn1c(Cc2cccn2C)nnc1SCC(=O)c1ccc(C)cc1
→ 63	122	/	-27
- CCN(CC)C(=O)Cn1cc(S(=O)(=O)CC(=O)NCc2ccc(F)cc2)c2ccccc21
→ 84	95	106	/
- CC(=O)N1CC(C(=O)N(CC(=O)Nc2cccc(C)c2C)CC2CCCO2)Oc2ccccc21 (configuration not stated)
→ 89	104	/	3
- Cc1cc(C(=S)N=P(N(C)C)(N(C)C)N(C)C)c(C)n1-c1ccccc1
→ 1	16	/	-39

# Next part
# Screens in order: Sa growth 42C second temp	Sa growth 42C	GIV Gai3 FP	HCMV UL50-53 inh
- CCOC(=O)/C=C1\SCC(=O)N1CCOC(=O)c1cncc(Br)c1
→ 93	107	/	-12
- CCOc1ccc(NC(=O)NC(C)c2c(-n3cccc3)sc(C)c2C)cc1 (configuration not stated)
→ 98	103	105	-15
- COc1ccc(Cl)cc1S(=O)(=O)NC(C)C
→ 101	109	101	-4
- COc1ccc(-c2noc(CN)n2)cc1OC
→ 80	98	110	-18
- CC(C)(C)c1cc(O)cc(C(C)(C)C)c1CN1CCN(CCN)CC1
→ 109	97	/	-9
- CC(=O)N1CCN(C(=S)NC(=O)c2ccc(F)cc2)CC1
→ 100	91	/	-6
- COc1cc(OC)cc(C(=O)Nc2cc(C)nn2-c2ncnc3c2cnn3-c2ccc(F)cc2)c1
→ /	/	105	-11
- COc1cccc(CNC(=O)C(=O)Nc2c3c(nn2-c2ccccc2)CSC3)c1
→ 78	128	104	/
- CCOC(=O)c1nc(Nc2ccc(OC)cc2Cl)c2ccccc2n1
→ /	/	103	-6
- COCCn1c(=O)[nH]c2cc(C(=O)N3CCN(Cc4ccc5c(c4)OCO5)CC3)ccc2c1=O
→ 76	77	100	/
- CC(=O)Nc1ccc(C(=O)CSc2nc3ccccc3c(=O)[nH]2)cc1
→ /	/	104	14
- CCOC(=O)c1c(C)[nH]c(C)c1C(=O)Cn1c(C)nc2cc3c(cc21)OCCO3
→ 84	99	/	-10
- O=c1[nH][nH]c(=S)n1Cc1ccccc1
→ 81&82	111&90	102	-34&-1
- COc1ccc(-c2ccc(SCc3nc(-c4ccc(Cl)cc4)no3)nn2)cc1OC
→ /	/	99	-8
- Cc1c(N2CCC(C(=O)N3CCN(C4CCCCC4)CC3)CC2)c(=O)n(C)c(=O)n1-c1ccccc1
→ /	/	106	-20
- CCn1c(=NC(=O)CSCC(=O)Nc2cc(C)on2)sc2ccccc21
→ 78	122	98	/
